CDC25B-CDK2 inh = primary biochemical HTRF screen for blockers of M-phase inducer phosphatase 2 binding to CDK2/cyclin A; HTRF CDC25B-CDK2/CyclinA binding, anti-His/anti-Flag; hits give high values; z-score (no concentration beside the values); hit rate 0.72% among 94,000;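 note: score is relative to mean and SD of negative controls; strong numbers were not always called active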
HIV TAR-Tat = TAR RNA-Tat peptide displacers, HIV-1, primary screen, biochemical, FRET, FAM/TAMRA-labeled Tat; HIV-1 TAR RNA, Tat peptide displacement FRET; hits give high values; z-score (no concentration beside the values); hit rate 0.6% among 100,000; AID 1259389, 2018;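 note: score is relative to mean and SD of negative controls; some compounds called inactive have numbers as strong as hits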
Starred values were filed as active, the others as inactive; x = no result given.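 Rule for the calls: active = z-score from 3 up in half or more of its runs; inactive = the rest.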

mol	CDC25B-CDK2 inh	HIV TAR-Tat
O=C(N/N=C/c1ccc(OC(F)(F)F)cc1)c1cnco1	-0.9	x
CCCSCCCNC(=O)c1csc2c1CCC(C)C2 (configuration not stated)	-3.22	0.2
COc1ccc(OC)c(C2C3=C(CCCC3=O)Nc3nc(SCc4ccccc4F)[nH]c(=O)c32)c1 (configuration not stated)	-0.51	-0.21
CN(CC(=O)NCCCN1CCN(C2CCCCC2)CC1)c1nnc(N2CCCC2=O)s1	x	2.57
Fc1ccc(CN2CCc3nc(N4CCN(c5ccccn5)CC4)ncc3C2)c(F)c1	x	-0.2
Cc1ccc(NC(=O)CSCC(O)C(F)(F)F)c(Cl)c1 (configuration not stated)	-0.43	x
Cc1nc2ccccc2c2oc(C(=O)NC3CCCCC3C)cc12 (configuration not stated)	-0.29	3.5
Nc1nnc(SCC(=O)Nc2ccc3c(c2)oc2ccccc23)s1	-0.9	x
CCc1nn2c(=O)c(S(=O)(=O)Nc3cccc(F)c3)c(C)nc2s1	0.05	-1.68
CC(C)c1ccc(-c2c(Nc3ccc(Cl)cc3)c(=O)c2=O)cc1	x	2.01
CC1CN(C(=O)N2CCC(C(=O)NCc3cccs3)CC2)c2cc(Cl)ccc2O1 (configuration not stated)	x	2.18
O=C1CSc2ccc(S(=O)(=O)N3CCC(C(=O)NCCC4=CCCCC4)CC3)cc2N1	x	-0.44
Cc1ccc(C2CC(c3ccc(NS(C)(=O)=O)cc3)=NN2C(=O)CCCC(=O)O)cc1 (configuration not stated)	-2.15	0.14
CC(C)CC(=O)CC1(O)C(=O)Nc2ccccc21 (configuration not stated)	-0.82	2.47
Cc1cc(NCc2cccnc2)c2ncnn2n1	-0.33	0.39
COc1ccc(-c2nnc3c4c(nnn4Cc4ccccc4F)c(C)nn23)cc1	1.52	0.9
CCc1ccc2ncc(S(=O)(=O)c3ccccc3)c(N3CCCC3)c2c1	9.11*	-2.49
COc1ccc(/C=C2/SC(N3CCN(C(c4ccccc4)c4ccccc4)CC3)=NC2=O)c(OC)c1	0.66	x
CCOc1ccc(-c2nc3ncccn3c2NC2CCCCC2)cc1	x	0.97
O=C(NC1CCS(=O)(=O)C1)c1ccc(NC(=O)c2nsc3ccccc23)cc1 (configuration not stated)	x	0.61
O=C(Cn1ncc2ccsc2c1=O)N1CCN(c2ccc(Cl)cc2)CC1	-2.29	-1.58
CCN1c2cc(C)ccc2-n2cccc2C12CCN(C(=O)NCc1ccco1)CC2	x	-0.32
CCCNC(=O)CSC1=NS(=O)(=O)c2ccccc2N1	x	-0.6
O=C1CCC(c2ccc(-n3ccnc3)cc2)=NN1	-2.13	x
CCOc1c(N2CCN(c3cc(C)ccc3C)CC2)c(=O)c1=O	x	-0.11
O=C(Nc1ncn[nH]1)c1c(-c2ccc(Cl)cc2)nc2n1CCS2(=O)=O	-1.57	-0.67
CC(C)(C)C1CCc2onc(C(=O)Nc3cnn(Cc4ccc(F)cc4)c3)c2C1 (configuration not stated)	-0.96	x
CCn1ccnc1C(O)(c1ccccc1)c1ccc(C)cc1 (configuration not stated)	-0.51	1.03
CC(CC(=O)N1CCN(c2ccccc2)CC1)S(=O)(=O)c1ccc2c(c1)NC(=O)CS2 (configuration not stated)	x	0.13
CCOC(=O)N1CCC(NC(=O)C2CCN(c3nnc(-n4cccc4)s3)CC2)CC1	-0.74	0.22
O=C(NCc1ccc2c(c1)OCO2)c1nnc(Cc2ccc3c(c2)OCO3)o1	-1.91	-0.72
Cc1cc(C)n(-c2ccc(N)cc2)n1	-1.79	x
O=C(CN1C(=O)CCc2cc(Br)ccc21)NCc1ccccn1	x	1.24
Cc1ccc2nc3c(cc2c1)CCN3C(=O)C1CC1	-1.1	-1.51
COc1ccccc1CNc1c2c(nc3ncnn13)CCC2	x	-0.37
CCCn1nc(-n2cnnc2)c(NS(=O)(=O)c2ccccc2)c1C	-1.21	1.32
Cc1cc(N2CCCC2)n2nc(-c3ccccc3)nc2n1	-3.08	0.86
CC1=C(C(=O)OCc2ccccc2)C(c2ccccn2)C2=C(CC(c3ccc(Cl)cc3)CC2=O)N1 (configuration not stated)	-1.24	-15.7
CCOC(=O)N1CCN(C2C(=O)c3ccccc3N2C(C)=O)CC1 (configuration not stated)	x	0.77
CCS(=O)(=O)c1ncc(Cl)c(C(=O)Nc2sc3c(c2C#N)CCCC3)n1	-2.78	2.35
Cc1ccc(C(=O)C2=C(O)C(=O)N(Cc3cccnc3)C2c2ccc(N(C)C)cc2)o1 (configuration not stated)	0.04	1.46
COc1cc(OC)c(NC(=O)N2CC(C)Oc3ccccc32)cc1Cl (configuration not stated)	x	1.92
CCCN(CCC)C(=O)Cn1nc(CC)n2c(cc3sc(C)cc32)c1=O	-1.71	1.16
COc1ccc(-c2ccc(=O)[nH]n2)cc1	-1.33	x
Cc1ccc(C)c(S(=O)(=O)N2CCC(c3nc4c(nnn4Cc4ccc(F)cc4)c(=O)[nH]3)CC2)c1	-2.24	1.2
COc1cc(C(=O)Oc2ccc3c(C)cc(=O)oc3c2C(C)=O)cc(OC)c1OC	-2.55	x
COc1cc(C2C(N3C(=O)c4ccccc4C3=O)C(=O)N2c2ccc(C)cc2)cc(OC)c1OC (configuration not stated)	-0.62	x
Cc1ccccc1-c1noc2ncnc(NCc3ccccc3Cl)c12	x	0.86
N/C(Cc1nc2cccnc2n1C1CC1)=N\OC(=O)c1ccc(OC(F)(F)F)cc1	-2.31	x
O=C(CCCN1C(=O)c2cccnc2Sc2ccccc21)Nc1ccccc1Br	x	-0.31
CCOC(=O)/C(C#N)=C1\CCCc2cc(OC)ccc21	-1.69	x
COc1ccc(-c2nc(-c3ccc(C)nc3OC)no2)cc1	0.21	1.14
O=C(Nc1c[nH]c(=O)[nH]c1=O)c1ccc2c(c1)C(=O)N(c1ccc(C(=O)c3ccccc3)cc1)C2=O	-2.36	x
COc1ccc(-c2nc3c(c(=O)[nH]2)Cc2cc(C)ccc2O3)c(OC)c1	-2.24	1.82
CCCCCCS(=O)(=O)Nc1ccc([N+](=O)[O-])cc1O	0.85	x
Cn1c(OCc2cccnc2)nc2c1c(=O)n(Cc1ccc(F)cc1)c(=O)n2C	0.33	3.21
CCOC(=O)N1CCC(NS(=O)(=O)c2ccc(-c3ccc(=O)[nH]n3)s2)CC1	x	2.19
CSc1nc(-c2ccncc2)nc(N)c1C#N	-1.03	x
Cc1ccc(-c2nnc(Cc3ccc(Cl)cc3)o2)cc1	-1.2	0.72
O=C(c1ccco1)N1CCN(c2nc3ccccc3c(=O)n2-c2ccc(Cl)cc2)CC1	-1.96	x

(further entries)
mol	CDC25B-CDK2 inh	HIV TAR-Tat
Cc1nn(-c2ccc3nnc(C)n3n2)c2c1C(c1ccccc1)CC(=O)N2 (configuration not stated)	x	1.27
Cc1nc2scc(C)n2c(=O)c1S(=O)(=O)Nc1ccc2c(c1)OCO2	-2.76	2.38
O=C(/C=C/c1ccc(O)c(O)c1)OCCc1ccccc1	-1.39	4.04
Cc1cc(C)n2c(=O)n(Cc3ccccc3)nc2n1	x	-0.91
Cc1ccc(-c2c(N3CCc4ccccc4C3)c(=O)c2=O)cc1C	x	2.48
CSc1nc(C)cc(Nc2ccc(C(=O)OCC(C)C)cc2)n1	-0.44	1.52
CCOC(=O)c1c(S(=O)(=O)NCC(=O)NC(C)CC)c(C)n(C)c1C (configuration not stated)	x	1.39
COc1ccc(CN(CCC(c2ccccc2)C2CCOC(C)(C)C2)C(C)=O)cc1OC (configuration not stated)	-2.67	x
Cc1c(C(N)=O)nnn1-c1ccc(Cl)cc1	-0.15	-1.19
CN1C2CCC1CC(NC(=O)Nc1ccc(OC(F)(F)F)cc1)C2 (configuration not stated)	-1.49	x
CC1=C(C(=O)NCc2cccs2)C2(CCN(S(C)(=O)=O)CC2)OC1=O	x	0.51
CC(C)n1cc(-c2noc(-c3cccs3)n2)c(=O)n(Cc2ccccc2)c1=O	-1.04	x
CCc1ccc(Nc2sc(C(=O)c3ccccc3)c(N)c2S(C)(=O)=O)cc1	-1.12	0.98
O=C1CCCC2=C1C(c1cccs1)n1nc(Cc3ccccc3)nc1N2 (configuration not stated)	0.7	x
Cc1nn(-c2ccc(N3CCCC3)nn2)c(C)c1CCC(=O)O	0.12	0.11

Entries of single compounds from above. Order of values: CDC25B-CDK2 inh	HIV TAR-Tat
`Cc1nc2scc(C)n2c(=O)c1S(=O)(=O)Nc1ccc2c(c1)OCO2` across the screens: -2.76	2.38
`Cc1cc(C)n2c(=O)n(Cc3ccccc3)nc2n1` across the screens: x	-0.91
`COc1ccc(CN(CCC(c2ccccc2)C2CCOC(C)(C)C2)C(C)=O)cc1OC` (configuration not stated) across the screens: -2.67	x

In a second layout: results already given.
Cn1c(OCc2cccnc2)nc2c1c(=O)n(Cc1ccc(F)cc1)c(=O)n2C
- CDC25B-CDK2 inh = 0.33
- HIV TAR-Tat = 3.21
CCOC(=O)N1CCC(NS(=O)(=O)c2ccc(-c3ccc(=O)[nH]n3)s2)CC1
- CDC25B-CDK2 inh = x
- HIV TAR-Tat = 2.19

(continued)
mol	CDC25B-CDK2 inh	HIV TAR-Tat
COc1ccc(-n2ccnc(SCC(=O)Nc3ccc(Br)cc3)c2=O)cc1	x	-0.18
Cc1cccc2c1Oc1nc(-c3ccccc3O)[nH]c(=O)c1C2	-0.22	0.96
O=C(Nc1ccc(F)cc1)C1Sc2nnc(-c3ccccc3)n2NC1c1ccccc1 (configuration not stated)	-2.32	-0.12
Cc1ccc(C(C(=O)O)N2Cc3ccccc3C2=O)cc1 (configuration not stated)	-0.61	-1.37
Cc1cc2oc(C(=O)Nc3c(C(=O)Nc4ccccc4)oc4ccccc34)cc(=O)c2cc1C	1.85	0
O=S(=O)(NCCO)c1ccc2c(c1)C(=NO)c1cc(S(=O)(=O)NCCO)ccc1-2	-1.22	x
CC1=NS(=O)(=O)c2cc(S(=O)(=O)NCCc3ccccc3)ccc2N1	x	-4.72
CCC(C(=O)NCCCN1CCN(CC)CC1)N1C(=O)CCn2nc(C)cc21 (configuration not stated)	x	1.74
Cc1ccc(S(=O)(=O)Nc2c(-n3cnnc3)nn(C)c2C)cc1C	-0.19	-0.07
COCCn1c(CCCO)nc2ccccc21	-1.89	0.57
Cc1c(C(=O)Nc2cccc3cccnc23)oc2ccc(Cl)cc12	0.27	1.02
O=S(=O)(c1ccc(-c2cc(C(F)(F)F)on2)s1)N1CCN(c2ccccc2F)CC1	x	0.93
CCN1C(=O)CC(N2CCN(c3ccc(Cl)cc3)CC2)C1=O (configuration not stated)	-2.19	2.66
O=C(c1noc2c1COc1ccccc1-2)N(Cc1ccco1)C1CCCCC1	-0.24	1.75
Cc1ccnc(NC(=O)Cn2c(=O)oc3cc(S(=O)(=O)N4CCCC4)ccc32)c1	0.51	1.77
Nc1ccccc1SC1CC(=O)N(c2ccccc2)C1=O (configuration not stated)	1.22	x
COCN(C#N)c1nc(OC)nc(OC)n1	-0.82	x
O=C(/C=C/c1ccccc1)Nc1ccc2c(c1)C(=O)c1ccccc1C2=O	-4.12	x
CCOC(=O)c1cn[nH]c1S(=O)(=O)Nc1cc(OCC)ccc1OCC	x	0.11
COc1cc(C(=O)NC(=S)Nc2nc(-c3ccc(F)cc3)cs2)cc(OC)c1OC	-1.27	x
O=C(CCC(=O)c1ccccc1)NC1=NCCS1	x	-0.24
Cc1oc2c(C)c(O)c(CN(C)C)cc2c(=O)c1-c1cnn(-c2ccccc2)c1	-0.42	x
Cc1ccc(Nc2ncnc3c2nc2n3CCCC2)c(Cl)c1	x	0.48
CSc1nc(-c2cccc(C)c2)nc2c1Cc1c(CO)cnc(C)c1O2	x	1.1
COc1ccc(NC(=O)NC(C)c2c(-n3cccc3)sc3c2CCN(C)C3)c(OC)c1 (configuration not stated)	x	-0.19
COc1cccc(-c2noc3ncnc(Nc4ccccc4OC)c23)c1	x	1.48
Cc1cc2c(cc1C)NC(c1ccccc1O)C1=C(CC(C)(C)CC1=O)N2 (configuration not stated)	-2.27	1.01
O=c1ccc2cc(S(=O)(=O)N3CCc4ccccc4C3)ccc2[nH]1	x	0.24
Cc1nn(-c2ccccc2)nc1CNC(=O)C1=Cc2ccccc2OC1	-1.59	x
Cc1cc2n(n1)C(c1ccc(N3CCOCC3)cc1)Nc1c(C)cccc1-2 (configuration not stated)	-1.19	3.01
COc1ccc(-c2csc3ncn(C(C)C(=O)O)c(=O)c23)cc1OC (configuration not stated)	1.2	-0.09
O=C1c2cccnc2C(=O)N1Cc1ccc(F)cc1S(=O)(=O)N1CCOc2ccccc21	x	1.61
Fc1ccccc1CSc1nc2cccnc2n1Cc1cn2ccccc2n1	x	0.42
O=C(O)c1ccccc1C(=O)Nc1ccc(Br)c(C(F)(F)F)c1	-0.94	x
CCCNS(=O)(=O)c1c(C(=O)N2CCC(C)CC2)c(C)n(C)c1C	x	0.91
CCCS(=O)(=O)Nc1ccc2c(c1)oc(=O)n2C	x	0.49
CCN(CC)c1nc(N2CCOCC2)c2cnn(C)c2n1	x	1.08

Quoted at random: five records from the list.
mol	CDC25B-CDK2 inh	HIV TAR-Tat
O=C1c2cccnc2C(=O)N1Cc1ccc(F)cc1S(=O)(=O)N1CCOc2ccccc21	x	1.61
CCCNS(=O)(=O)c1c(C(=O)N2CCC(C)CC2)c(C)n(C)c1C	x	0.91
CCCS(=O)(=O)Nc1ccc2c(c1)oc(=O)n2C	x	0.49
CCN(CC)c1nc(N2CCOCC2)c2cnn(C)c2n1	x	1.08
O=C(O)c1ccccc1C(=O)Nc1ccc(Br)c(C(F)(F)F)c1	-0.94	x

Screening data as filed in PubChem BioAssay.
